# High-throughput results deposited in PubChem BioAssay by several laboratories.
# BJeLR viability – BJeLR cell viability loss; AID 1554; inhibition, % (concentration not given with the values); hit rate 0.17% among 300,000; BJeLR (HRASV12) viability, CellTiter-Glo ATP luminescence, 48 h; reference of the scale not given here;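 active = replicate mean above 50%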;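 note: 50 nL library stock added to about 25 µL; numbers are from one replicate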
# PrP 5UTR inh – suppresses PrP 5' UTR mRNA reporter expression | cell-based PrP 5' UTR mRNA reporter, plate reader | inhibition, % (concentration not given with the values) | hit rate 0.35% among 340,000 | AID 488862;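 active = every replicate at 50% or more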;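 note: 0 = median of the neutral control wells; tested in H4 reporter cells; numbers are from one replicate; inactives centre near -14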
# ugtP null kill – compounds lethal to S. aureus RN4220 ugtP deletion mutant; growth inhibition, % (no concentration beside the values); AID 1259309; hit rate 0.54% among 330,000; OD600 growth, 16 h; some inactives read as strong as hits;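 active = z-score under -3 and OD600 up to 0.15 on both plates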;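 note: plate controls were untreated wells for no effect and antibiotic for full effect; wells of about 80 µL received 100 nL stock; the first replicate is given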
# Mtb hypoxia inh – inhibitors of hypoxia-regulated fluorescent reporter in Mycobacterium tuberculosis. M. tuberculosis hypoxia-regulated fluorescent reporter, fluorescence. fluorescence inhibition, % (no concentration beside the values). hit rate 0.1% among 300,000;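 active = 35 to 45% if threefold the growth effect, above 45% if 1.5-fold the growth effect; inactive = the rest, general growth blockers included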;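 note: wells of about 50 µL received 100 nL stock; 0% = vehicle wells and 100% = reference inhibitor wells; whole bacteria with a GFP reporter of the hypoxia response; strong numbers were not always called active; many hits fall short of the cut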
# Bead autofluor – compound fluorescence in toxin protease inhibitor counterscreen. fluorescence intensity (concentration not given with the values). compound autofluorescence counterscreen, microsphere flow cytometry; stronger effect = higher value. hit rate 3.1% among 360,000. AID 624483;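 active = at least 3 SD above the mean of all compounds, about 16000 in these data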;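 note: 100 nL of 1 mM stock went into each well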
# Sa RN4220 lethal – S. aureus RN4220 growth inhibition. hit rate 0.33% among 330,000. OD600, 16 h. inhibition, % (concentration not given with the values);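 active = z-score of -3 or lower and OD600 up to 0.18 on both plates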;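 note: plate controls were untreated cells for no effect and reference antibiotic for full effect; stock transfer was 100 nL into about 80 µL; one replicate is shown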
# Mtb hypoxia inh growth – also measured in Mtb hypoxia inh; calls as there; growth inhibition, %; measured here: M. tuberculosis growth (absorbance);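 0% = vehicle and 100% = reference antibiotic; read after six days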
# Numbers without * were called inactive; . = not tested or not shown.
smiles	BJeLR viability	PrP 5UTR inh	ugtP null kill	Mtb hypoxia inh	Mtb hypoxia inh growth	Bead autofluor	Sa RN4220 lethal
COc1ccc(C(=O)C2CCCN(Cc3cccn3-c3ccccn3)C2)c(OC)c1 (stereo not given)	0	-5	-2	-4	-15	2625	-0.5
O=C(CSc1ccc(Cl)cc1)NNC(=O)c1cccnc1	-1	-14	6	-4	-2	4299	8.1
Nc1c(C(=O)Nc2ccccc2)nnn1-c1ccc2c(c1)OCCO2	15	-58	-3	17	4	4967	0.5
O=C(O)c1cc(-c2ccco2)nn1-c1cccc(Cl)c1	2	-20	5	15	9	4367	4.7
O=S(c1ccsc1)c1ccsc1	-1	-7	0	8	7	3299	6.5
COc1ccc(C(C(=O)NC2CCCC2)N(CCCO)C(=O)c2snc(C(N)=O)c2N)cc1 (stereo not given)	3	-11	9	-5	-2	5595	0.0
CCN(CC)C(=O)COC(=O)C1=NN(c2cc(C)ccc2C)C(=O)CC1	4	-4	-7	16	3	5512	3.1
COCCNC(=O)c1c(N)n(N=Cc2cccs2)c2nc3ccccc3nc12	.	.	-6	8	-3	.	11
COc1ccccc1/C=N\Nc1ccccc1[N+](=O)[O-]	4	-94	.	.	.	4112	.
C=CCn1c(CCCNC(=O)c2ccccc2OC)nc2ccccc21	-2	-13	13	6	2	4942	6.1
CCOC(=O)c1ccc2nc(NC(=O)C(C)C)sc2c1	5	-61	2	0	10	5984	1.5
O=C(C1CCC(CNc2c(N3CCCCC3)c(=O)c2=O)CC1)N1CCN(C2CCCCC2)CC1 (stereo not given)	6	-26	3	2	14	4616	8.5
CC(C)c1ccccc1NC(=O)C1CC(=O)N(C2CCCC2)C1 (stereo not given)	-11	-10	3	5	5	5972	0.6
O=C(NCCCN1CCOCC1)C(=O)c1c[nH]c2ccccc12	-2	-16	-2	-3	-4	3874	2.5
Cc1ccc(NC(=O)C(=O)NNC(=O)c2cccs2)cc1	4	3	1	4	-4	3938	1.3
COCc1cc(N2CCCC2)nc(-c2ccccc2)n1	-2	-8	3	10	5	5337	6.6
O=C(NCCCn1ccnc1)C(Cc1ccc([N+](=O)[O-])cc1)N1C(=O)c2ccccc2C1=O (stereo not given)	-7	-7	13	9	3	2519	20
O=C(CN1CCCc2ccccc21)NN=Cc1ccc(F)cc1F	.	.	5	-6	8	.	3.1
Cc1nc(C)c(C(=O)OCC(=O)NCc2ccccc2Cl)s1	.	1	0	-8	2	4383	1.4
Cc1csc(NC(=O)c2ccc(C)s2)n1	-1	-118	-17	8	3	5756	4.8
Cc1ccc(C(=O)NCC(=O)OCC(=O)c2ccc(C)c([N+](=O)[O-])c2)cc1	-2	-14	4	1	8	2396	1.6
CCOC(=O)C1CCCN(C/C=C/c2ccccc2)C1 (stereo not given)	-1	-21	4	8	1	3764	3.9
C=CCNC(=O)COc1ccc(Oc2ccccc2)cc1	2	-23	2	-1	7	4433	1.8
O=C(Nc1nc2ccccc2s1)c1ccc(F)cc1	1	-50	22	2	-5	4133	0.9
CCCCOC(=O)Cn1c(=O)oc2ccc(C)cc21	-4	-16	-5	9	7	5566	-9.3

# (listing goes on)
smiles	BJeLR viability	PrP 5UTR inh	ugtP null kill	Mtb hypoxia inh	Mtb hypoxia inh growth	Bead autofluor	Sa RN4220 lethal
CN(C)c1ccc(NC(=O)Cn2ncn3c(cc4ccccc43)c2=O)cc1	-12	-8	0	-10	-9	12738	4.2
N/C(=N\N=C\c1cccs1)SC1CC(=O)N(c2ccc(Br)cc2)C1=O (stereo not given)	13	1	.	.	.	2052	.
CCCc1nc2ccc(NC(C)=O)cc2c(=O)n1Cc1ccc(Cl)cc1	7	-73	-5	10	0	3683	5.4
CS(=O)(=O)c1ccc(N)c(SSc2cc(S(C)(=O)=O)ccc2N)c1	-2	5	-4	6	4	3962	8.5
COc1ccc(N=Cc2[nH]c3ccccc3c2O)cc1	1	-49	.	.	.	3588	.
COc1ccccc1C1CC(=O)Oc2ccc(C(C)(C)C)cc21 (stereo not given)	.	-2	61	1	2	3746	-1.3
CCC(C)(C)n1nnnc1C(c1cccs1)N1CCCCC1 (stereo not given)	8	52*	6	19	1	4005	4.3
Cc1cc(C)nc(NNC2=CC(=[N+]3CCCCC3)CC(C)(C)C2)n1	4	12	14	2	-6	3368	0.0
Cc1cccc(NC(=O)CSc2nc3ccccc3nc2N2CCCC2)c1C	5	-8	-2	8	5	5729	-5.2
COc1cccc(CN2CC(C(=O)NCc3cnn(C)c3)CCC2=O)c1 (stereo not given)	-16	-19	1	-3	1	6176	1.1
COc1ccc(C(=O)OCC(=O)c2c[nH]c3ccccc23)c(OC)c1	.	-37	0	2	-4	8458	2.2
Cc1cccc(NC(=S)NCc2ccc(F)cc2)c1	-4	-16	4	.	.	2538	5.9
CC(=O)c1ccc(NC(=O)c2ccc(CSc3ccccc3)o2)cc1	8	2	11	10	1	2437	2.7
CC1CCN(C(C(=O)Nc2ccc3c(c2)OCO3)c2ccccc2)CC1 (stereo not given)	6	-7	12	11	5	6072	2.2
CCn1c(CSCc2ccc(C)cc2)nnc1SCC(=O)NCc1ccccc1	-6	-17	-3	3	5	2489	-16
Cc1cc(=O)n(CC(=O)NC2CC2)c2c1c(C)nn2-c1ccccc1	-24	-3	2	1	-6	5531	1.6
CCCN(CC(=O)Nc1ccccc1C)C(=O)c1ccc(N2CCCC2)c([N+](=O)[O-])c1	0	-12	6	-1	-3	5633	5.2
COc1ccccc1/C=C(/NC(=O)c1ccccc1)C(=O)NCCCn1ccnc1	1	-13	-3	2	-6	6517	1.2
Cc1oc2ccc(NS(=O)(=O)c3ccc(C(C)(C)C)cc3)cc2c1C(=O)Nc1ccccc1	3	-23	-22	.	.	3064	0.8
CN(C)Cc1c(C(=O)NN=Cc2ccco2)nnn1-c1nonc1N	.	.	0	7	-4	.	2.2
CCOC(=O)N1CCN(S(=O)(=O)c2ccc3[nH]c(=O)sc3c2)CC1	4	-1	71	.	.	2751	-1.8
Cn1c(=O)n(C)c2cc(S(=O)(=O)Nc3ccccc3C(=O)O)ccc21	-6	-11	4	18	9	3099	4.5
CCN(CC)C(=O)C1=C(C)NC(=O)NC1c1c(F)cccc1Cl (stereo not given)	2	-14	15	9	6	16958*	8.0
O=C(CNC(=O)c1cccc(Br)c1)N/N=C/c1cccnc1	-6	-23	.	.	.	6186	.
CCS(=O)(=O)N1CCC(C(=O)NCc2ccco2)CC1	-7	-14	5	5	5	10836	4.7

# New compounds follow
smiles	BJeLR viability	PrP 5UTR inh	ugtP null kill	Mtb hypoxia inh	Mtb hypoxia inh growth	Bead autofluor	Sa RN4220 lethal
COC(=O)c1ccc(CSc2nc3c(cnn3-c3ccc(C)cc3)c(=O)[nH]2)o1	4	-20	-5	9	2	8097	9.9
CC(C(=O)Nc1cc(C(F)(F)F)ccc1N1CCOCC1)N1C(=O)C2CCCCC2C1=O (stereo not given)	.	-16	1	10	-1	3945	5.3
CCN(Cc1ccc(C#CCCO)cc1)CC1CCCN(CCc2cccc(OC)c2)C1 (stereo not given)	-8	-3	6	15	2	.	5.2
Brc1csc(C=NNc2nc3ccccc3s2)c1	.	.	15	7	-5	.	18
COc1ccc(/C=C/C(=O)c2ccoc2)cc1	10	-32	11	14	10	2541	27
O=C(CNc1cccc(C(F)(F)F)c1)NN=CC1CCCCC1	.	.	7	-1	8	.	7.5
CC1CCN(C2CCN(S(=O)(=O)c3ccc(F)cc3)CC2)CC1	0	-23	6	10	9	9245	2.5
COc1cc(OC)cc(N(C(=O)c2ccco2)C(C(=O)NC2CCCC2)c2ccc(N3CCOCC3)cc2)c1 (stereo not given)	11	3	11	-1	11	5487	-0.6
Cn1nccc1C(=O)Oc1ccc(/C=N/NC(=O)c2ccccc2O)cc1	5	-10	.	.	.	2468	.
CC(=O)c1cccc(NC(=O)C(C)OC(=O)c2ccc3ncsc3c2)c1 (stereo not given)	.	-1	1	-16	-10	4907	-1.8
O=C(O)CC(C(=O)O)N1C(=O)/C(=C/C=C/c2ccco2)SC1=S (stereo not given)	-3	-7	3	7	5	4016	1.7
Oc1ccc(Cl)cc1CNCc1ccc(Cl)nc1	.	-3	-20	7	14	4214	-0.9
O[C@@H]1CN(Cc2ccc(-n3cccn3)cc2)CC[C@H]1N1CCN(c2ccccc2F)CC1	12	-72	9	3	7	4210	6.1
CC(C)(C)n1nc2c(c1NC(=O)CCCc1ccccc1)CS(=O)C2 (stereo not given)	-3	-9	-6	-2	6	4085	5.4
Cc1ccc2cccc(NC(=S)NC(=O)c3ccnn3C)c2n1	-2	-11	16	6	6	4627	4.6
Cc1ccc(N2C(=O)c3ccc(C(=O)N4CCN(Cc5ccccc5)CC4)cc3C2=O)cc1	4	-4	-7	-13	0	3249	0.5
CCN(CC(=O)NCc1cccs1)C(=O)CN(C)S(=O)(=O)c1ccc(C)cc1	3	-8	-4	7	5	5382	-1.5
CC(O)CCC(C)OC1OC(C)C(O)CC1O (stereo not given)	.	.	2	16	4	.	8.5
COc1ccc(CNC(=O)CCCn2nc(C)n3ccnc3c2=O)cc1	-7	-14	-1	1	-1	6401	3.2
CCN1CCN(C(=O)c2cc(COc3ccc(F)cc3F)on2)[C@@H](C)C1=O	-1	-17	0	4	-2	5393	2.7
CC12C(=O)N(c3ccccn3)C(=O)C1C1C=CC2C1 (stereo not given)	6	0	7	.	.	4740	5.3
CCc1c(O)cc2n(c1=O)-c1ccccc1C2(C)C	0	-2	7	.	.	3668	-0.4
COc1ccc(CCNC(=O)c2cc(S(=O)(=O)N3CCCCC3)c[nH]2)cc1OC	6	1	11	0	4	6473	8.7
C#CC[N+]1(CC#Cc2ccc(C)cc2)CCCCC1	4	13	2	7	4	2669	8.4
COc1ccc(/C=N/N2CCOCC2)cc1Cn1nc(C)c([N+](=O)[O-])c1C	3	-28	.	.	.	5951	.

# Single records, as listed above. Values in the order: BJeLR viability | PrP 5UTR inh | ugtP null kill | Mtb hypoxia inh | Mtb hypoxia inh growth | Bead autofluor | Sa RN4220 lethal
# CC(O)CCC(C)OC1OC(C)C(O)CC1O (stereo not given) across the screens: . | . | 2 | 16 | 4 | . | 8.5
# Oc1ccc(Cl)cc1CNCc1ccc(Cl)nc1 across the screens: . | -3 | -20 | 7 | 14 | 4214 | -0.9
# CC1CCN(C2CCN(S(=O)(=O)c3ccc(F)cc3)CC2)CC1 across the screens: 0 | -23 | 6 | 10 | 9 | 9245 | 2.5
# COc1ccc(CNC(=O)CCCn2nc(C)n3ccnc3c2=O)cc1 across the screens: -7 | -14 | -1 | 1 | -1 | 6401 | 3.2

# (further entries)
smiles	BJeLR viability	PrP 5UTR inh	ugtP null kill	Mtb hypoxia inh	Mtb hypoxia inh growth	Bead autofluor	Sa RN4220 lethal
COc1ccc2c(c1)cc1n2CCN=C1NCCO	-4	-26	3	10	3	10995	1.8
CC(C)c1nc(SCC(=O)N2CCCC2)c2c(=O)n(C)c(=O)n(C)c2n1	-8	0	3	4	2	4298	5.4
CC(=NNC(=O)c1cccnc1)c1ccccc1	.	.	3	12	6	.	2.6
CCCCCc1nc2c(C#N)c(-c3ccc(Cl)cc3)ccn2n1	-2	-6	19	.	.	3489	11
C1CCCCCC2(CCCCC1)OCC(CN1CCOCC1)O2 (stereo not given)	-4	-1	-7	19	8	2428	12
Cc1ccc(SCCC(=O)Nc2ccccc2C(=O)NC(C)C)cc1	-20	-24	4	4	-3	6948	5.2
c1ccc(C(NCCNC(c2ccccc2)c2ccccc2)c2ccccc2)cc1	3	-21	14	2	7	3863	-7.0
COc1ccc(CNC(=O)/C=C/C(=O)O)cc1OC	2	-19	8	10	4	2100	2.4
O=C(COC(=O)COc1cccc(C(F)(F)F)c1)NC1CCS(=O)(=O)C1 (stereo not given)	-1	-15	4	6	3	.	4.5
COc1ccc(OC)c(NC(=O)C2CCCN(S(=O)(=O)c3c(C)noc3C)C2)c1 (stereo not given)	-4	0	4	.	.	3318	0.5
COC(=O)C1NC(=O)N2C1SC(C)(C)C2C(=O)OC (stereo not given)	.	.	4	21	9	.	7.4
CCOc1ccc(/C=N/NC(=S)Nc2c(C)cccc2C)cc1	-2	-11	.	.	.	2990	.
CC(C)C1COC(c2cccn2Cc2ccccc2Cl)=N1 (stereo not given)	-5	-29	37	15	8	2452	5.5
O=C(CSc1nnnn1-c1ccc(O)cc1)Nc1cccc(S(=O)(=O)N2CCCC2)c1	-2	-26	1	.	.	2274	-1.1
